2A Renilla: FMDV 2A StopGo reporter, Renilla signal. HEK cells with a luciferase reporter of 2A StopGo recoding. hit rate 0.32% among 120,000. AID 1745857. Potency, µM (titrated, usually from 57.5 µM), for the others: top-dose signal change, negative = less light; active means well fitted falling curve with a large enough effect; inconclusive means small, poorly fitted or top-dose-only effect; inactive means no such curve, though single readings can be large or run the other way; also: nearly all actives have a fitted effect of over 55% in size; overnight with compound
2A firefly: FMDV 2A StopGo reporter, firefly signal; HEK cells with a luciferase reporter of 2A StopGo recoding; Potency, µM (titrated, usually from 57.5 µM), for inactives: at the top dose signal change, negative = less light; hit rate 0.23% among 120,000; AID 1745856; active = well fitted falling curve with a large enough effect; inconclusive = small, poorly fitted or top-dose-only effect; inactive = no such curve, though single readings can be large or run the other way; also: nearly all actives have a fitted effect of over 60% in size; overnight with compound
* hit, by the source's call; ? = inconclusive; & = joins results of further samples; [ ] = dose if it differs, or a comment. % is scaled to controls: 0 for no effect and ±100 for the full control effect; potency is read from the fitted curve at half-maximal effect.

Start of the data: the first 12 entries (preview)
SMILES | 2A Renilla | 2A firefly
CC(C(=O)NC(N)=O)N(C)Cc1ccc(C(=O)NC2CC2)cc1 (stereo not given) | 2.8% | 10.0%
CC(=O)c1cc(-c2ccc(F)cc2)n(CCC(=O)Nc2nc3ccc(C)cc3s2)c1C | -18.7% | -7.6%
O=C1c2ccccc2NC(c2cnc3ccccc3n2)N1c1ccc(Cl)cc1 (stereo not given) | 19.9% | 106.6%[activator]
COc1ccc(C(=O)COC(=O)c2cc(-c3cccs3)nc3ccccc23)cc1 | -15.8% | -2.8%
CC12CC3CC(C)(C1)CC(NCc1ccccn1)(C3)C2 | 8.1% | 12.4%
COc1ccc2c(C)cc(SCC(=O)Nc3nsc(-c4ccccc4C)n3)nc2c1 | -3.0% | 0.0%
O=c1c2nnn(Cc3cccc(Cl)c3)c2ncn1Cc1nc(-c2ccccc2)no1 | 6.0% | 12.3%
COc1ccc(-c2cc(C(=O)NCCc3ccccc3)c3c(-c4ccccc4)[nH]nc3n2)cc1OC | -5.6% | 15.4%
COC(=O)c1ccc(NC(=O)C2CCN(S(=O)(=O)c3ccc4c(c3)CCCN4C(C)=O)CC2)cc1 | 14.9% | 8.5%
COC(=O)c1scc(-c2ccc(C)cc2)c1S(=O)(=O)N1CCN(c2ccccc2F)CC1 | 162.8%[activator] | 28.9%
CCOc1ccccc1NC(=O)CN1C(=O)C(=O)c2ccccc21 | -7.1% | -1.9%
Cc1ccc(-c2noc(CSc3nnc(C4CC4)n3-c3ccccc3)n2)cc1 | -5.8% | 0.0%

Main list, repeating the preview:
SMILES | 2A Renilla | 2A firefly
CC(C(=O)NC(N)=O)N(C)Cc1ccc(C(=O)NC2CC2)cc1 (stereo not given) | 2.8% | 10.0%
CC(=O)c1cc(-c2ccc(F)cc2)n(CCC(=O)Nc2nc3ccc(C)cc3s2)c1C | -18.7% | -7.6%
O=C1c2ccccc2NC(c2cnc3ccccc3n2)N1c1ccc(Cl)cc1 (stereo not given) | 19.9% | 106.6%[activator]
COc1ccc(C(=O)COC(=O)c2cc(-c3cccs3)nc3ccccc23)cc1 | -15.8% | -2.8%
CC12CC3CC(C)(C1)CC(NCc1ccccn1)(C3)C2 | 8.1% | 12.4%
COc1ccc2c(C)cc(SCC(=O)Nc3nsc(-c4ccccc4C)n3)nc2c1 | -3.0% | 0.0%
O=c1c2nnn(Cc3cccc(Cl)c3)c2ncn1Cc1nc(-c2ccccc2)no1 | 6.0% | 12.3%
COc1ccc(-c2cc(C(=O)NCCc3ccccc3)c3c(-c4ccccc4)[nH]nc3n2)cc1OC | -5.6% | 15.4%
COC(=O)c1ccc(NC(=O)C2CCN(S(=O)(=O)c3ccc4c(c3)CCCN4C(C)=O)CC2)cc1 | 14.9% | 8.5%
COC(=O)c1scc(-c2ccc(C)cc2)c1S(=O)(=O)N1CCN(c2ccccc2F)CC1 | 162.8%[activator] | 28.9%
CCOc1ccccc1NC(=O)CN1C(=O)C(=O)c2ccccc21 | -7.1% | -1.9%
Cc1ccc(-c2noc(CSc3nnc(C4CC4)n3-c3ccccc3)n2)cc1 | -5.8% | 0.0%
COc1ccc(NC(C)=O)cc1NC(=O)CN1CCN(c2ccc(F)cc2)CC1 | -3.6% | -4.5%
CC(=O)CC(=O)N(CCC[N+](C)(C)C)CCC[N+](C)(C)C | 4.1% | -4.0%
O=C(Nc1cccc2cccnc12)c1cc(Cl)ccc1Cl | 23.8% | 97.1%[activator]
COc1cc(C(=O)N2CCC(CC(=O)NCCN3CCCCCC3)CC2)cc(OC)c1OC | 1.2% | 6.5%
CC(C)NC(=O)c1ccccc1CSc1nc2ccccc2o1 | 4.7% | 16.6%
CCOc1ccccc1Oc1c(C)oc2cc(OC(=O)c3ccc4c(c3)OCO4)ccc2c1=O | 4.7% | 1.3%
CCCN(CCC)C(=O)C1CCCN(S(=O)(=O)c2ccc3c(c2)oc(=O)n3C)C1 (stereo not given) | 3.5% | -10.1%
CCCN(CCC)c1cc(C)nc2nc(-c3ccc(Cl)cc3)nn12 | -9.4% | -15.3%
Cc1noc(C(C)N2CCN(C(=O)Cc3ccccc3Cl)CC2)n1 (stereo not given) | -4.9% | 9.3%
COC(=O)c1ccc(CCNC(=O)C(C)C)cc1 | -0.3% | 41.8%[activator]
CC1(C)Cc2sc3c(=O)n(Cc4ccc(Br)cc4)cnc3c2CO1 | -1.3% | 54.6%[activator]
CCCCNc1nc(Oc2ccc(OCC(N)=O)nn2)nc(N2CCOCC2)n1 | 5.4% | 6.4%
N#CCCn1cc(C(=O)N2CCCCC2)c(-c2ccc(Cl)cc2)n1 | 138.6%[activator] | 16.2%
COc1ccc(NC(=O)c2ccc3c(c2)N(Cc2cccc(Cl)c2)C(=O)c2ccccc2S3(=O)=O)cc1Cl | 9.9% | 7.0%
CCc1ccc2oc(C(=O)N(Cc3ccc(Cl)cc3)C3CCS(=O)(=O)C3)cc(=O)c2c1 (stereo not given) | 32.3% | 36.3%
CCN1CCN(c2oc(-c3ccc(COc4ccc(OC)cc4)o3)nc2C#N)CC1 | -9.9% | 1.0%
COC(=O)c1c(-c2ccccc2)c(-c2ccccc2)nn(C)c1=O | -5.8% | 9.9%
O=C(NCc1ccc(Cl)cc1)C1CCN(S(=O)(=O)c2ccc3c(c2)CCCN3C(=O)C2CCC2)CC1 | 0.6% | ?
CCC(=O)c1ccc(C2CCCCC2)cc1 | -1.5% | 21.4%
CN(C(=O)c1cc2ccccc2oc1=O)C(c1ccccc1)c1ccccc1 | 159.2%[activator] | 3.8%
COc1ccc(C(=O)NCCSc2c[nH]c3ccccc23)cc1OC | 0.6% | -4.8%
O=C(Nc1ccc2oc(-c3cccnc3)nc2c1)c1ccc(Cl)c([N+](=O)[O-])c1 | -10.0% | 13.2%
CCCCc1cnc2c(c1SCC(N)=O)c(=O)n(C)c(=O)n2C | -12.8% | -0.3%
Fc1ccc(-c2cc(-c3ccc(F)cc3)c3c(n2)-c2cc(F)ccc2OC3)cc1 | -6.9% | 3.1%
Nn1cnc2ccccc21 | 7.9% | 19.8%
Cc1c2c(nc3ccccc13)CCc1ccccc1-2 | 8.1% | ?
CC(CCCc1ccccc1)NC(=O)c1nn(-c2ccc(Cl)cc2)nc1CO (stereo not given) | -23.0% | 0.0%
CCn1cc(C(=O)NCc2ccccc2)c(=O)c2cc(S(=O)(=O)N3CCCCC3)ccc21 | -6.4% | -10.0%
CCCNC(=O)CN1CCN(c2ncc(NC(=O)c3ccc(Cl)cc3)cc2C(=O)O)CC1 | -3.5% | -12.8%
CCc1c(C)sc(NC(=O)C(F)(F)C(F)(F)C(F)(F)F)c1C#N | 10µM* | ?
Cc1cccc(/C=C(/C(=O)N2CCCCCC2)c2cccs2)c1 | 174.8%[activator] | 5.9%
COc1ccc(OC)c(C2CC(=O)N(c3cccc(C)c3)C3=C2C(=O)OC3)c1 (stereo not given) | 1.7% | 2.4%
CCSc1ccccc1C(=O)Nc1ccc(CC)cc1 | 18.8% | 194.3%[activator]
Cc1ccc(Cn2nc3n(c2=O)-c2cc(Cl)ccc2OC3)cc1 | 4.8% | 4.4%
CCn1nc(C(=O)OC(C)C(=O)Nc2ccccc2C)c2ccccc2c1=O (stereo not given) | 12.9% | 27.3%
COc1cc(-c2noc(-c3ccccc3C(=O)NCc3ccco3)n2)cc(OC)c1OC | 43.3%[activator] | 0.0%
O=C(NC1CCCCCC1)c1csc2ccccc12 | 39.2%[activator] | 168.7%[activator]
O=C(NCc1cnn(-c2ccccc2)c1)C1CCN(S(=O)(=O)c2cccc(C(F)(F)F)c2)CC1 | -10.0% | -14.2%
(more compounds)
SMILES | 2A Renilla | 2A firefly
C#CCn1c(COc2ccccc2C)nc2ccccc21 | 3.5% | 221.2%[activator]
COc1ccc(N(C(=O)/C=C\C(=O)Nc2ccc(C)cc2)C(C(=O)NCc2ccco2)c2ccc(C)cc2)cc1 (stereo not given) | 3.5% | -32.6%
O=C(/C=C/c1cnc2ccccc2n1)NC12CC3CC(CC(C3)C1)C2 | -12.9% | 100.6%[activator]
CCOc1ccc(C=O)c2ccccc12 | 4.47µM* | 10µM*
CS(=O)(=O)N1CCCc2cc(C(=O)Nc3ccc(-c4nnc5n4CCCCC5)cc3)ccc21 | 57.7%[activator] | 48.0%[activator]
CC(=O)Nc1ccc(NC(=O)COc2cc(O)c3c(=O)cc(-c4ccccc4)oc3c2)cc1 | 2.7% | 12.6%
COc1ccc(CNC(=O)CC2CCN(C(=O)c3cn(-c4ccccc4)nc3C)CC2)cc1 | -9.4% | -6.5%
COC(=O)N(C)CC(=O)NC1CCCCCC1 | 2.8% | 8.7%
CCOc1ccc(-n2nc3ccc(NC(=O)COc4ccc(OC)cc4)cc3n2)cc1 | -6.8% | ?
CC(C)(C)OC(=O)N1CCC(c2c(C(=O)NCc3cccc(Cl)c3)cnn2-c2ccc(F)cc2)CC1 | 1.6% | -8.3%
CCOc1ccc(C(C)NC(=O)Cc2cccs2)cc1OCC (stereo not given) | 20.3% | 22.7%
COc1ccc(CC(=O)OCc2ccccc2C#N)c(OC)c1 | 19.9% | 69.2%[activator]
Cc1cc(CN2CCN(Cc3nc(C(C)C)no3)CC2)no1 | 2.3% | 2.6%
Cn1cc(C(=O)NC2CCN(Cc3nnc(C(C)(C)C)o3)CC2)cn1 | -9.0% | -10.4%
COc1ccc(-c2[nH]c(-c3ccc(Cl)cc3)nc2SCC(=O)NCC2CCCO2)cc1 (stereo not given) | 0.0% | -11.3%
COC(=O)C1=C(C(=O)c2ccc(C)cc2)C(c2ccc(C(C)C)cc2)n2nnnc2N1 (stereo not given) | 4.6% | -2.1%
CC(C)(C)c1cc(C(C)(C)C)c2oc(=O)c(-c3nc4ccc(C(=O)O)cc4[nH]3)cc2c1 | 4.8% | -2.8%
Cc1ccc(S(=O)(=O)N2CCCc3cc(NS(=O)(=O)c4ccccc4)ccc32)cc1 | 154.2%[activator] | ?
COC(=O)c1ccccc1-c1ccc(C(C)=O)o1 | -2.1% | 5.7%
N#Cc1ccc(/C=N/Nc2ccccc2C(F)(F)F)cc1 | 4.8% | 91.5%[activator]
CCc1ccccc1NC(=O)Cn1c(=O)n(Cc2ccccc2)c(=O)c2c(C)c(C(=O)N(C)C)sc21 | ? | ?
CCOc1ccccc1NC(=O)CSc1nc2c(sc3ccccc32)c(=O)n1CCCC(=O)NC1CCCC1 | -11.3% | -11.4%
CC(OC(=O)c1cccs1)C(=O)c1c[nH]c2ccccc12 (stereo not given) | 13.9% | 113.4%[activator]
N=C(N)c1cccc(OCc2cccnc2)c1 | -4.8% | 11.9%
O=C(CSc1nnc2n(-c3ccccc3)c(=O)c3ccccc3n12)Nc1ccc(OC(F)F)cc1 | 0.2% | 0.9%
CCc1ccc(NC(=O)Cn2c(=O)n(CCCC(=O)NCc3ccccc3OC)c(=O)c3ccccc32)cc1 | -12.2% | -11.7%
Cc1ccc(CC(=O)Nc2cc(C(C)(C)C)ccc2O)cc1 | -38.3% | 1.7%
Cn1c(SCC(=O)Nc2ccc(F)cc2)nc2cc(-c3ccccc3)sc2c1=O | -17.5% | -19.7%
Cc1ccc(S(=O)(=O)N(Cc2nc(-c3ccc(Cl)cc3)no2)C2CCCCC2)cc1 | 71.8%[activator] | -2.5%
COc1ccc(CNC(=O)c2ccc3c(c2)N(Cc2ccc(C)cc2)CCS3)cc1 | 149.8%[activator] | 3.3%
CCOC(=O)c1cccc(Nc2cc(C)nc(C)n2)c1 | 21.9% | 85.9%[activator]
COc1ccc(-c2noc(CCCC(=O)NCC3CCCO3)n2)cc1 (stereo not given) | ? | ?
Cc1ccc(C)c(NC(=O)C(c2ccccc2)N2Cc3ccccc3C2=O)c1 (stereo not given) | 53.8%&-9.3%[activator] | -13.0%&4.1%
COc1cccc(C(=O)Oc2ccc(OC(=O)c3cccc(OC)c3)cc2)c1 | -3.8% | 19.4%
CCOc1ccc(NC(=O)Nc2c[nH]c(=O)[nH]c2=O)cc1 | -8.7% | -12.7%
CC1(C)CC(=O)C2=C(C1)NC(Nc1nc3ccccc3o1)=NC2c1ccccc1Cl (stereo not given) | 7.6% | 3.6%
COc1ccc(N2Cc3cccc(C(=O)Nc4ccc(Cl)cc4)c3C2=O)cc1 | -16.7% | -13.7%
O=C(CC1C=CCC1)NCCc1cccs1 (stereo not given) | 10.8% | 125.5%[activator]
CC(SC(C)c1ccc(F)cc1)C(=O)NC(N)=O (stereo not given) | 0.0% | 0.0%
Cc1ccc(NC(=O)CSc2nc(-c3ccco3)ccc2C#N)cc1C | -7.8% | -0.3%
COc1ccc(CN2CC(=O)N(c3cccc(Cl)c3)[C@@H]3CS(=O)(=O)C[C@@H]32)cc1OC | 7.9% | 9.4%
Cc1ccc(C(=O)Nc2ccc(Cl)c(C(F)(F)F)c2)c(C)c1 | ? | 0.0%
CC(=O)c1cnn(-c2cc(NC3CCCC3)nc(-c3ccccc3)n2)c1C | 31.0%[activator] | 11.7%
COc1ccc(OC)c(S(=O)(=O)Nc2ccc(Nc3nc(C)cc(N(C)C)n3)cc2)c1 | 211.1%[activator] | 13.9%
OCC(CO)(CO)NCc1ccc(-c2ccccc2)cc1 | 3.1% | 16.5%
CC(C)N(C)C(=O)CSc1nc(NC2CC2)c2ccccc2n1 | -5.9% | -5.2%
Cc1ccc(-c2nnc(Nc3ccc(C(N)=O)cc3)c3ccccc23)cc1S(N)(=O)=O | 2.8% | -20.7%
CC(=O)Nc1cccc(-c2cn3cccnc3n2)c1 | -7.0% | -6.6%
CSc1ccccc1C(=O)Nc1ccccc1-c1ccccc1 | 63.5%[activator] | -0.3%
COc1cc(/C=C/C(=O)c2ccc(CC(C)C)cc2)cc(OC)c1O | -13.8% | 0.0%
CC(=O)NCCNC(=O)c1cc(=O)[nH]c2ccccc12 | -14.1% | -13.3%
CC(C)CNC(=O)c1ccc(C2Nc3cc(C(F)(F)F)ccc3S(=O)(=O)N2)cc1 (stereo not given) | -5.8% | 2.9%

Hits appear at their usual frequency, and some 0.55% of all compounds hit somewhere here.
